Compound activity as filed in PubChem.
FPRL1 ligand – binds the human formylpeptide receptor-like-1 FPRL1; P25090; FPRL1-expressing cells, fluorescent ligand binding inhibition, flow cytometry; inhibition, %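 (tested at 6.7 µM)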; 24,000 tested, 0.3% active; AID 441;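 also: 0% = buffer alone and 100% = receptor blocker peptide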
Target sequence (P25090 whole entry, looked up): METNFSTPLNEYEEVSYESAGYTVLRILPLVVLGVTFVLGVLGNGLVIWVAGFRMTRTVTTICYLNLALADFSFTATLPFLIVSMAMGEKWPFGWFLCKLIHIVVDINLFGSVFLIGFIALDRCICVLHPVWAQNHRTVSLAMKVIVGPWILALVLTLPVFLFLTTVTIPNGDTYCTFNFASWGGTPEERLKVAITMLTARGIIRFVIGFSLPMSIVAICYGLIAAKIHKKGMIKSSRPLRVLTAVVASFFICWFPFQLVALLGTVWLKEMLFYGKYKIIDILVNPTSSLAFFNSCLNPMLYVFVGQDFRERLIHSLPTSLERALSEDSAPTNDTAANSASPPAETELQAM
VCAM-1 down imaging – inhibitors of TNFa-induced VCAM-1 surface display, imaging, high-content imaging, pooled HUVEC, TNFa stimulus (AID 456); HUVEC TNFa-induced VCAM-1 surface expression, immunofluorescence imaging; numbers were filed only for top-ranked candidate wells; 10,000 tested, 0.2% active; inhibition, % at 5 µM, or IC50 in µM where a hit was titrated;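 active = top tenth filtered wells with inhibition above zero that passed visual or statistical confirmation; inactive = the rest, including hits rejected on review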;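 also: 0% = stimulated vehicle wells and 100% = unstimulated cells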
VCAM-1 inhibition – inhibitors of TNFa-induced VCAM-1 surface display, cell-based, plate reader, pooled HUVEC, TNFa stimulus (AID 454) | HUVEC TNFa-induced VCAM-1 surface immunofluorescence, plate reader; numbers were filed only for top-ranked candidate wells | inhibition, % at 5 µM | 10,000 tested, 0.2% active;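 active = compound among top-ranked inhibitors of TNF-induced VCAM-1 adhesion protein staining, with the hit upheld by image or statistical review; inactive = the rest, including hits rejected on review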;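 also: 0% = TNFa with vehicle and 100% = cells without TNFa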
VCAM-1 up imaging – enhancers of VCAM-1 display on endothelial cells, imaging, high-content imaging, pooled HUVEC, TNFa stimulus (AID 457) | Pooled HUVEC, TNFa-induced VCAM-1 immunofluorescence imaging; hits of this screen are not shown here | 10,000 tested, 0.2% active | calls only;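 active = a top-ranked rise in VCAM-1 staining upheld on image or statistical review; inactive = the rest, including candidates rejected on review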;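 also: compounds tested at 5 µM in the well; cells exposed to compound for 24 hours before fixing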
FPR ligand – ligands of human FPR, also counter-screen for FPRL1 ligands | P21462 | 24,000 tested, 0.74% active | inhibition, %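 (tested at 6.7 µM)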 | FPR-expressing cells, fluorescent ligand binding, flow cytometry | AID 440;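 also: 0% = buffer wells and 100% = receptor blocker peptide wells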
Target sequence (P21462 whole entry, looked up): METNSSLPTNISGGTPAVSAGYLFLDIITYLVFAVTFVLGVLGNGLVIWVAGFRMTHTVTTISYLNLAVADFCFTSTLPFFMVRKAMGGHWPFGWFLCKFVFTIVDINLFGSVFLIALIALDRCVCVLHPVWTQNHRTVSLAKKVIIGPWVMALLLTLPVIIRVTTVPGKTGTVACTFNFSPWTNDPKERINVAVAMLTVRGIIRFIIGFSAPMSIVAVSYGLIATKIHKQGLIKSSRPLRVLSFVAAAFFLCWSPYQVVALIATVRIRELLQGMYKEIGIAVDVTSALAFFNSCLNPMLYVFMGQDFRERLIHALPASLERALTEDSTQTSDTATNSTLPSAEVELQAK
* marks the source's active call; other numbers are inactive results.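 The calls were made as follows, unless noted: active = mean above 30%; inconclusive = self-fluorescent; inactive = the rest.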 An excerpt. The share of hits here may be higher or lower than overall.

For CC1=NS(=O)(=O)c2cc(Cl)ccc2N1 the results were FPRL1 ligand 1.0, VCAM-1 down imaging inactive, VCAM-1 inhibition inactive, VCAM-1 up imaging inactive and FPR ligand 0.0.
CNC(=O)c1nnn(Cc2ccccc2)c1NC(=O)C(F)(F)F was read as FPRL1 ligand 4.3 and FPR ligand -0.2.
Screening Cc1ccc(Cn2nnnc2CN2CCC(O)(c3ccccc3F)CC2)cc1 returned FPRL1 ligand -0.4, VCAM-1 down imaging inactive, VCAM-1 inhibition inactive, VCAM-1 up imaging inactive and FPR ligand -3.6.
For COc1ccccc1C(=O)NC(C)C(c1cccs1)N1CCN(C)CC1 (stereo unspecified) the results were FPRL1 ligand 2.2, VCAM-1 down imaging inactive, VCAM-1 inhibition inactive, VCAM-1 up imaging inactive and FPR ligand -0.9.
Screening Cc1noc(C)c1C(=O)N1CCN(C(=O)c2sc3cc(Cl)ccc3c2Cl)CC1 returned FPRL1 ligand -2.5, VCAM-1 down imaging inactive, VCAM-1 inhibition inactive, VCAM-1 up imaging inactive and FPR ligand -4.7.
Screening CCOC(=O)c1ccccc1NC(=O)Cn1cnc2c(oc3ccccc32)c1=O returned FPRL1 ligand 9.9 and FPR ligand 6.1.
`Cc1ccccc1-c1nc(CS(=O)CC(=O)NCc2ccccc2)c(C)o1` (stereo unspecified) gave FPRL1 ligand -1.5 and FPR ligand 6.5.
For Cn1nc(C(=O)NC2CCCCCC2)ccc1=O the results were FPRL1 ligand -0.9, VCAM-1 down imaging inactive, VCAM-1 inhibition inactive, VCAM-1 up imaging inactive and FPR ligand -0.5.
Screening Cc1ccc2nc(NC(=O)C3CCN(S(=O)(=O)c4cccs4)CC3)sc2c1 returned FPRL1 ligand -12.5 and FPR ligand 3.0.
For COc1ccc(C(=O)N2CCN(C3CCCCC3)CC2)c(OC)c1 the results were FPRL1 ligand -0.2, VCAM-1 down imaging inactive, VCAM-1 inhibition inactive, VCAM-1 up imaging inactive and FPR ligand 1.6.
`Cn1c(=NC(=O)CSCC(=O)N2CCCCC2)sc2ccccc21` gave FPRL1 ligand 8.8 and FPR ligand 7.9.
O=C(Cn1nc(-c2ccccc2)ccc1=O)NCCN1CCN(Cc2ccccc2)CC1 was read as FPRL1 ligand 0.3 and FPR ligand -0.9.
Screening CCN(CC)C(C(=O)Nc1ccc2c(c1)OCO2)c1ccccc1 (stereo unspecified) returned FPRL1 ligand -13.0 and FPR ligand -33.5.
`Cc1oc(-c2ccc(Cl)cc2)cc1-c1nn2c(-c3ccoc3C)nnc2s1` gave FPRL1 ligand 2.3, VCAM-1 down imaging inactive, VCAM-1 inhibition inactive, VCAM-1 up imaging inactive and FPR ligand 5.2.
O=C(CSc1nnnn1Cc1ccccc1)Nc1ccc2c(c1)OCO2 was read as FPRL1 ligand 2.8, VCAM-1 down imaging inactive, VCAM-1 inhibition inactive, VCAM-1 up imaging inactive and FPR ligand -2.5.
`Fc1ccc(-c2cc(C(F)(F)F)nc(N3CCCCC3)n2)cc1` gave FPRL1 ligand 5.7 and FPR ligand -6.9.
CCOC(=O)CSc1nc(C)c(C(=O)OCC)s1 was read as FPRL1 ligand -4.5, VCAM-1 down imaging inactive, VCAM-1 inhibition inactive, VCAM-1 up imaging inactive and FPR ligand -2.3.
Screening Cc1cccn2c(=O)c3cc(C(=O)N4CCc5ccccc54)n(C)c3nc12 returned FPRL1 ligand -6.7 and FPR ligand -1.4.
`C1CCC2=NCCCN2CC1` gave FPRL1 ligand -1.9, VCAM-1 down imaging inactive, VCAM-1 inhibition inactive, VCAM-1 up imaging inactive and FPR ligand -2.9.
Screening COc1cccc(Cn2c(-c3nonc3N)nc3ccccc32)c1 returned FPRL1 ligand 0.6, VCAM-1 down imaging inactive, VCAM-1 inhibition inactive, VCAM-1 up imaging inactive and FPR ligand 1.6.
`CCS(=O)(=O)N1CCCC(C(=O)NC2CCC(C)CC2)C1` (stereo unspecified) gave FPRL1 ligand 1.2 and FPR ligand -3.1.
Cc1cccc(-c2nsc(SCC(=O)N3CCCC3)n2)c1 was read as FPRL1 ligand -4.4 and FPR ligand -2.0.
Cc1ccc(C)c(Cn2c(=O)n(CCC(=O)NCc3ccco3)c(=O)c3sccc32)c1 was read as FPRL1 ligand -1.6, VCAM-1 down imaging inactive, VCAM-1 inhibition inactive, VCAM-1 up imaging inactive and FPR ligand -0.3.
COc1ccc(OC)c(C2C(C(=O)O)c3ccccc3C(=O)N2C)c1 (stereo unspecified) was read as FPRL1 ligand 9.4 and FPR ligand 2.0.
For Cc1nc2ccccn2c1P(=O)(N1CCCCC1)N1CCCCC1 the results were FPRL1 ligand 9.8, VCAM-1 down imaging inactive, VCAM-1 inhibition inactive, VCAM-1 up imaging inactive and FPR ligand 21.0.
`CCCC(=O)NCCCc1nc2ccccc2n1CCC` gave FPRL1 ligand 4.4 and FPR ligand -0.6.
For Cc1ccc2oc(=O)c3cnn(CC(=O)N4CCCc5ccccc54)c3c2c1 the results were FPRL1 ligand 4.9, VCAM-1 down imaging inactive, VCAM-1 inhibition inactive, VCAM-1 up imaging inactive and FPR ligand 1.1.
O=C(C(Cc1ccccc1)n1cccc1)N1CCN(c2ncccn2)CC1 (stereo unspecified) was read as FPRL1 ligand 0.2 and FPR ligand 7.3.
For CCN(CC)CCCNC(=O)C1c2ccccc2C(=O)N1Cc1ccc(C)cc1 (stereo unspecified) the results were FPRL1 ligand -2.1 and FPR ligand 1.6.
Cc1cccc(-c2cc3nc4c(c(N5CCC6(CC5)OCCO6)n3n2)CCCC4)c1 was read as FPRL1 ligand -4.5, VCAM-1 down imaging inactive, VCAM-1 inhibition inactive, VCAM-1 up imaging inactive and FPR ligand 4.4.

Random excerpt: 3 entries already listed.
Cc1cccc(-c2nsc(SCC(=O)N3CCCC3)n2)c1 was read as FPRL1 ligand -4.4 and FPR ligand -2.0.
For Cc1ccc2oc(=O)c3cnn(CC(=O)N4CCCc5ccccc54)c3c2c1 the results were FPRL1 ligand 4.9, VCAM-1 down imaging inactive, VCAM-1 inhibition inactive, VCAM-1 up imaging inactive and FPR ligand 1.1.
For Cc1nc2ccccn2c1P(=O)(N1CCCCC1)N1CCCCC1 the results were FPRL1 ligand 9.8, VCAM-1 down imaging inactive, VCAM-1 inhibition inactive, VCAM-1 up imaging inactive and FPR ligand 21.0.

Next entries follow.
O=C(Nc1ccc2c(c1)OCCO2)NC1CCCCC1 was read as FPRL1 ligand -0.6, VCAM-1 down imaging inactive, VCAM-1 inhibition inactive, VCAM-1 up imaging inactive and FPR ligand -2.4.
`Cc1cc(C(=O)N2CCN(c3ccccc3)CC2)no1` gave FPRL1 ligand 1.1 and FPR ligand 2.9.
Screening C#CCSc1nc(-c2cccs2)ccc1C#N returned FPRL1 ligand 5.3, VCAM-1 down imaging inactive, VCAM-1 inhibition inactive, VCAM-1 up imaging inactive and FPR ligand -4.1.
Screening Cc1nc2sc(C(c3ccc(Cl)cc3)N3CC(C)OC(C)C3)c(O)n2n1 (stereo unspecified) returned FPRL1 ligand 9.9 and FPR ligand 1.9.
`COc1cccc(C(=O)c2cc3ccc(O)cc3oc2=O)c1` gave FPRL1 ligand 11.3 and FPR ligand 4.7.
`Cc1cc(C)cc(C(=O)N2CCC(C(N)=O)CC2)c1` gave FPRL1 ligand 3.4, VCAM-1 down imaging inactive, VCAM-1 inhibition inactive, VCAM-1 up imaging inactive and FPR ligand -0.4.
COc1cccc(-n2cc(C(=O)O)c3ccccc3c2=O)c1 was read as FPRL1 ligand -9.4 and FPR ligand -2.1.
Screening Cc1ccc(Cl)cc1NC(=O)C1CCCN(S(=O)(=O)c2c(C)noc2C)C1 (stereo unspecified) returned FPRL1 ligand 1.0 and FPR ligand -4.7.
Screening COc1ccc2oc(=O)c(NC(=O)C3CCCCC3)cc2c1 returned FPRL1 ligand 24.5 and FPR ligand -7.9.
`COC(=O)c1ccc(C2C(C#N)=C(C)NC3=C2C(=O)CC(C)(C)C3)cc1` (stereo unspecified) gave FPRL1 ligand -1.0 and FPR ligand -0.5.
`C=CCNC(=O)CSc1nc2sc(C)c(C)c2c(=O)[nH]1` gave FPRL1 ligand -8.9, VCAM-1 down imaging inactive, VCAM-1 inhibition inactive, VCAM-1 up imaging inactive and FPR ligand 2.2.
`COc1ccccc1OCCOCCn1cnc2ccccc2c1=O` gave FPRL1 ligand 1.6, VCAM-1 down imaging inactive, VCAM-1 inhibition inactive, VCAM-1 up imaging inactive and FPR ligand 3.1.
`CCOc1ccccc1-c1nc(C(N)=O)c2[nH]c(=O)n(-c3ccccc3)c2n1` gave FPRL1 ligand 3.4 and FPR ligand 2.8.
For CCOC(=O)c1[nH]c(C)c(C(=O)Nc2cccc(Cl)c2C)c1C the results were FPRL1 ligand -4.1 and FPR ligand 1.3.
`CC(C)OC(=O)CSc1nnc(Cc2ccccc2)n1Cc1ccco1` gave FPRL1 ligand -9.4, VCAM-1 down imaging inactive, VCAM-1 inhibition inactive, VCAM-1 up imaging inactive and FPR ligand -3.0.
`COc1ccc(NC(=O)C2CCCN2S(=O)(=O)c2ccc3c(c2)CCC(=O)N3)cc1Cl` (stereo unspecified) gave FPRL1 ligand -2.4 and FPR ligand -0.4.
Screening Cc1ccc(S(=O)(=O)NC(CC(=O)N2CCOCC2)c2ccco2)cc1 (stereo unspecified) returned FPRL1 ligand -0.8 and FPR ligand -3.6.
For CCOC(=O)CN1Cc2cccc(C(=O)O)c2C1=O the results were FPRL1 ligand 2.0 and FPR ligand 0.6.
O=c1c2c(nc3cc(-c4ccccc4)[nH]n13)CCC2 was read as FPRL1 ligand -7.9 and FPR ligand 0.5.
CCOC(=O)c1ccc(NC(=O)C2C3CCC(C3)C2C(=O)O)cc1 (stereo unspecified) was read as FPRL1 ligand 1.8 and FPR ligand -13.8.
COCCOC(=O)c1[nH]c2c(c1C)C(=O)C(C(=O)OC)C(C)C2 (stereo unspecified) was read as FPRL1 ligand 3.5 and FPR ligand -3.4.
`COc1ccc(C2(C(=O)Nc3c(C)n(C)n(-c4ccccc4)c3=O)CCCC2)cc1OC` gave FPRL1 ligand 0.7, VCAM-1 down imaging inactive, VCAM-1 inhibition inactive, VCAM-1 up imaging inactive and FPR ligand 2.6.
`Cc1nnc(SCC(=O)Nc2ccc3c4c(cccc24)CC3)n1C` gave FPRL1 ligand -3.4, VCAM-1 down imaging inactive, VCAM-1 inhibition inactive, VCAM-1 up imaging inactive and FPR ligand 3.7.
O=C1CCc2cc(S(=O)(=O)N3CCN(C(=O)c4ccco4)CC3)ccc2N1 was read as FPRL1 ligand -0.5 and FPR ligand -4.9.
For OC(CCN1CCCCC1)(c1ccccc1)c1ccccc1 the results were FPRL1 ligand -2.5, VCAM-1 down imaging inactive, VCAM-1 inhibition inactive, VCAM-1 up imaging inactive and FPR ligand 0.1.
Cc1csc(NC(=O)c2ccccc2C(=O)O)n1 was read as FPRL1 ligand 2.7, VCAM-1 down imaging inactive, VCAM-1 inhibition inactive, VCAM-1 up imaging inactive and FPR ligand 3.5.
For O=C(O)[C@H](Cc1ccccc1)N1C(=O)c2ccncc2C1=O the results were FPRL1 ligand -2.3 and FPR ligand 0.1.
For CCOc1ccc(NC(=O)N(CCN2CCOCC2)Cc2ccc3c(c2)CCCN3CC)cc1 the results were FPRL1 ligand -4.4 and FPR ligand -3.5.
Cc1ccc(NC2=NC(c3ccccc3)n3c(nc(C)cc3=O)N2)cc1 (stereo unspecified) was read as FPRL1 ligand -1.2, VCAM-1 down imaging inactive, VCAM-1 inhibition inactive, VCAM-1 up imaging inactive and FPR ligand 7.3.
For CC1CCC(NC(=O)CC2Oc3ccccc3NC2=O)CC1 (stereo unspecified) the results were FPRL1 ligand -8.9 and FPR ligand 1.7.
COC(=O)n1c(=S)oc2cc(Cl)ccc21 was read as FPRL1 ligand 5.8, VCAM-1 down imaging inactive, VCAM-1 inhibition inactive, VCAM-1 up imaging inactive and FPR ligand 6.2.
CCOC(=O)N1CCN(C(=O)c2cc3c(-c4ccc(Cl)cc4)nn(C)c3s2)CC1 was read as FPRL1 ligand 8.4 and FPR ligand 8.5.
For CC(C)=CCSc1nnc(CCNC(=O)OC(C)(C)C)o1 the results were FPRL1 ligand -2.7, VCAM-1 down imaging inactive, VCAM-1 inhibition inactive, VCAM-1 up imaging inactive and FPR ligand 4.2.
Screening CCc1ccccc1NC1c2ccccc2C(=O)N1c1cc(C)ccn1 (stereo unspecified) returned FPRL1 ligand 0.4 and FPR ligand 0.4.
For CN1C(=O)CSc2ccc(NC(=O)N3CCc4ccccc43)cc21 the results were FPRL1 ligand 7.6 and FPR ligand -0.7.
`O=C(O)CCS(=O)(=O)Cc1ccccc1F` gave FPRL1 ligand -6.7 and FPR ligand -8.4.
COc1cc(OC)cc(C(=O)N(CN2CCCC2=O)c2ccccc2OC)c1 was read as FPRL1 ligand -2.2 and FPR ligand -6.4.
`COc1cccc(C=Nc2cc(C)on2)c1O` gave FPRL1 ligand 4.7 and FPR ligand 3.1.
